Screening results from PubChem.
HPGD block: blocks human HPGD enzyme activity; 150,000 compounds, 4.3% hits; purified HPGD, NADH fluorescence kinetic, PGE2 substrate; P15428; Potency, µM, inactives show top-dose activity change, negative = inhibition, actives largely listed as inhibitors; active = well fitted inhibition curve with a large enough effect (not every such curve was filed as active); inconclusive = small, poorly fitted or top-dose-only effect, or another doubt; inactive = no such curve, though single readings can be large or run the other way;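 further: top concentration of the series not given in the record; plate controls included wells without enzyme; inactives centre near -10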
Target sequence (P15428 whole entry, looked up): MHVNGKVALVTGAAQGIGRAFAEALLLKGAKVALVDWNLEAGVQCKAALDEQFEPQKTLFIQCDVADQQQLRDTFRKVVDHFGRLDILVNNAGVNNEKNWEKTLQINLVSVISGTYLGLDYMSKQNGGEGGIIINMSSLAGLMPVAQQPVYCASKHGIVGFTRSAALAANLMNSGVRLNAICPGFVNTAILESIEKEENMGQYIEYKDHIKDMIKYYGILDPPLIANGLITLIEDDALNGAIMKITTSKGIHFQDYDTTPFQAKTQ
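20 nM HPGD preincubated 15 min at room temperature with compound in 50 mM Tris-HCl pH 8, 0.01% Tween 20. Started with 1 mM NAD+ and 30 uM prostaglandin E2; NADH fluorescence (360/450 nm) read 5 times over 30-s intervals, last minus first.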
Numbers without * were called inactive; i = inactive; ? = inconclusive. On the % scale 0 is the no-effect control and ±100 the full control effect; potency means the concentration at half of the fitted maximal effect.

HPGD block | Molecule
? | O=C(/C=C/c1cccc(Cl)c1)c1nc2ccccc2[nH]1
-6% | COc1cccc(OC)c1C(=O)Nn1c(C2CCC2)nc2ccccc2c1=O
-6% | Cc1ccc(NC(=O)CSC2=C(C#N)C(c3ccco3)CC(=O)N2)cc1 (stereo unspecified)
-11% | Cc1cccc(N2C(=O)C3C4C=CC(C4)C3C2=O)c1 (stereo unspecified)
-12% | CCCCCCSC1=C(C#N)C(c2ccccc2)CC(=O)N1 (stereo unspecified)
-3% | COc1ccc(N2CCN(C(=O)CSc3nnc(-c4cccnc4)n3-c3ccccc3)CC2)cc1
-21% | Cc1sc2ncnc(NCC(c3ccco3)N(C)C)c2c1C (stereo unspecified)
-2% | CN(C(=O)COC(=O)c1c[nH]c(=O)[nH]c1=O)C1CCCCC1
13µM* | N/C(=N\OC(=O)CCCCCN1C(=O)c2ccccc2C1=O)c1ccccc1
0% | Cc1cc(=O)[nH]c(SCc2nnnn2-c2ccc(Cl)cc2)n1
-12% | CS(=O)(=O)N(CC(=O)Nc1cccc(Cl)c1)c1ccccc1Cl
-12% | CCC(Sc1nncn1C)C(=O)Nc1nnc(-c2ccccc2Cl)s1 (stereo unspecified)
-4% | C=CCOc1c(OC)cc(Cl)cc1C1NC(=O)NC(C)=C1C(C)=O (stereo unspecified)
-3% | Cc1ccc(C(=O)COC(=O)CNC(=O)c2ccc(N3C(=O)c4ccccc4C3=O)cc2)cc1C
7.1µM* | Cc1sc(NC(=O)c2sc3nc4c(C)cccc4cc3c2N)c(C#N)c1C
22µM* | Cc1cc(N2CCCCC2)ccc1[N+](=O)[O-]
-18% | CC(NC(=O)c1cnc2n(c1=O)CCS2)c1ccccc1 (stereo unspecified)
-19% | COc1ccccc1N=C1SC(C)CN1C(=O)C1CCC1 (stereo unspecified)
-11% | COc1cc(/C=N/NC(=O)COc2c(C)cc([N+](=O)[O-])cc2C)ccc1OC(=O)c1ccccc1
-16% | COCC(C)n1c(SCC(=O)NNC(=O)c2ccccc2)nc2ccccc2c1=O (stereo unspecified)
-13% | O=C(Nc1ccc(F)cc1F)c1cc(-c2ccco2)on1
? | COc1cc(CNc2ccccc2SC)ccc1O
-1% | O=C(c1c(F)cccc1F)N1CCC(O)(c2cccnc2)CC1
-17% | Cc1ncc([N+](=O)[O-])n1CCOC(=O)Nc1ccc(Cl)c(Cl)c1
2% | CN=C(Nc1cc(C)nn1-c1ccccc1)c1ccccc1F
-11% | Cc1ccc(N2C(=O)c3ccccc3C2=O)cc1Cl
-8% | O=C(COC(=O)COc1cccc(Br)c1)Nc1c(Cl)cccc1Cl
-24% | S=C(Nc1ccccc1)Nc1nc2ccccc2n1CCOc1ccc(Br)cc1
-19% | CN1CCc2c(sc3ncn4nc(-c5ccccc5O)nc4c23)C1
? | CCn1cc(Cl)c(C(=O)N2N=C(c3ccc4ccccc4c3)CC2c2ccccc2O)n1 (stereo unspecified)

Pulled by compound from above:
HPGD block | Molecule
-6% | COc1cccc(OC)c1C(=O)Nn1c(C2CCC2)nc2ccccc2c1=O
? | CCn1cc(Cl)c(C(=O)N2N=C(c3ccc4ccccc4c3)CC2c2ccccc2O)n1 (stereo unspecified)
-4% | C=CCOc1c(OC)cc(Cl)cc1C1NC(=O)NC(C)=C1C(C)=O (stereo unspecified)
-19% | COc1ccccc1N=C1SC(C)CN1C(=O)C1CCC1 (stereo unspecified)

(list continues)
HPGD block | Molecule
? | Cc1noc(C)c1COC(=O)c1cc(=O)[nH]c2ccccc12
-20% | Cc1cc(O)c(/C=N/Nc2ccccc2Cl)c(=O)o1
-12% | COc1cc(-c2c(C#N)c(N)nc3c2CCCC3)ccc1O
-2% | O=C(Nc1nc(-c2ccccc2)cs1)c1cccc([N+](=O)[O-])c1C(=O)O
-13% | COc1ccc(NCC(O)Cn2cnc3c2c(=O)n(C)c(=O)n3C)cc1 (stereo unspecified)
-24% | Cc1ccccc1NC(=O)c1c(C)nc(SCC(=O)OCc2ccccc2)c(C#N)c1-c1ccc(F)cc1
-29% | Clc1cncc(Cl)c1NNc1c2ccccc2nc2ccccc12
? | CCCCCCCCCS(=O)(=O)Nc1cc(C)ccn1
1% | Cc1cc(C)c(-n2c(O)c(C=NCCN3CCOCC3)c(=O)[nH]c2=O)c(C)c1
1% | COc1ccc(-c2nc3c(c4c2C[C@H](c2ccccc2)OC4)CN(S(=O)(=O)c2ccc(C#N)cc2)CC3)c(C)c1
-8% | CCc1nc(SCC(=O)Nc2ccc3c(c2)OCCO3)c2oc3ccccc3c2n1
2% | O=C(CN(c1ccc(F)cc1)S(=O)(=O)c1ccc2c(c1)OCCO2)NCC1CCCO1 (stereo unspecified)
-17% | Cc1cc(NC(=O)CSc2nc3ccc(Cl)cc3[nH]2)no1
-4% | CC(C)CCn1c(C(C)O)nc2ccccc21 (stereo unspecified)
? | c1ccc2c(-c3nc(-c4ccncc4)no3)cccc2c1
-14% | CC1CCN(C(=O)Cn2c(SCC(=O)Nc3nccs3)nc3ccccc32)CC1
-19% | CC(/C=N/NC(=O)CSc1nc(C)cc(C)n1)=C\c1ccccc1
-1% | O=C(Nc1ccc(N2CCOCC2)cc1)c1cnsn1
-2% | CC(=O)c1ccc(OCC(O)CN2CCN(c3ccccn3)CC2)cc1 (stereo unspecified)
-4% | O=C1Cc2ccccc2Sc2c(OCCN3CCCCC3)cccc21
-3% | O=c1ccc2cc(S(=O)(=O)Nc3ccc(F)cc3)ccc2o1
4% | COc1ccc(NC(=O)CSc2nnc(CNC(=O)COc3ccc(Cl)cc3)o2)c(OC)c1
-7% | CCN1C(=O)CC(N2CCN(C(c3ccccc3)c3ccccc3)CC2)C1=O (stereo unspecified)
-9% | COc1ccc(OC)c(C(c2nnnn2C2CCCC2)N2CCN(c3ccccc3)CC2)c1 (stereo unspecified)
28µM* | O=C(Cc1cccs1)N1CCCC(c2nc3c(nnn3Cc3ccc(F)cc3)c(=O)[nH]2)C1 (stereo unspecified)
? | Cc1cccc(-n2ncc3c(N4CCc5ccccc54)ncnc32)c1
-15% | CCOC(=O)c1c(NC(=O)CSc2ncnc3ccccc23)sc(C)c1C
-6% | O=C(O)CCC(=O)N1CCN(c2cccc(Cl)c2)CC1
-14% | CCCS(=O)(=O)c1c(S(=O)(=O)CCC)c2cnccn2c1C(=O)c1ccc(CC)cc1
-29% | COC(=O)c1ccc(CSc2nc3ccccc3c(=O)n2-c2cccc(OC)c2)o1

A different layout for 3 compounds above:
SMILES	HPGD block
Cc1cc(NC(=O)CSc2nc3ccc(Cl)cc3[nH]2)no1	-17%
O=C1Cc2ccccc2Sc2c(OCCN3CCCCC3)cccc21	-4%
CC(C)CCn1c(C(C)O)nc2ccccc21 (stereo unspecified)	-4%

6 entries out of the list above, ordered by the number in HPGD block, smallest number first:
HPGD block | Molecule
-24% | Cc1ccccc1NC(=O)c1c(C)nc(SCC(=O)OCc2ccccc2)c(C#N)c1-c1ccc(F)cc1
-13% | COc1ccc(NCC(O)Cn2cnc3c2c(=O)n(C)c(=O)n3C)cc1 (stereo unspecified)
-9% | COc1ccc(OC)c(C(c2nnnn2C2CCCC2)N2CCN(c3ccccc3)CC2)c1 (stereo unspecified)
-4% | O=C1Cc2ccccc2Sc2c(OCCN3CCCCC3)cccc21
-3% | O=c1ccc2cc(S(=O)(=O)Nc3ccc(F)cc3)ccc2o1
-2% | CC(=O)c1ccc(OCC(O)CN2CCN(c3ccccn3)CC2)cc1 (stereo unspecified)

New compounds follow:
HPGD block | Molecule
-7% | CCCCOC(=O)Cn1c(=O)c2c(nc(Br)n2Cc2ccccc2)n(C)c1=O
-20% | N#CC1=C(N)Oc2c(sc3ccccc23)C1c1ccco1 (stereo unspecified)
18µM* | Cc1nc(N)sc1-c1csc(NCc2ccccc2)n1
-21% | Cc1ccc2[nH]c(=O)c(CN(Cc3cccnc3)Cc3nnnn3CCN3CCOCC3)cc2c1
-11% | Cc1ccc(-c2ccc(=O)n(CC(=O)N3CCN(c4cc(Cl)ccc4C)CC3)n2)cc1
? | COc1ccccc1N1Cc2ccccc2C1
-4% | Cc1cc(C)c(C)c(S(=O)(=O)NCC(=O)NCc2ccco2)c1C
1% | CCN(CC)C(=O)c1c([N+](=O)[O-])c(C(C)(C)C)nn1C
-8% | COc1cc(OC)cc(C(=O)NNC(=O)c2ccccn2)c1
-24% | COCCNC(=S)N/N=C/c1ccc(OCc2ccc(C(=O)OC)cc2)cc1
-7% | COc1ccccc1N1CCN(C(=O)C(NS(=O)(=O)c2cccs2)c2ccccc2)CC1 (stereo unspecified)
0% | O=C(O)CCCNC(=O)c1cncc(Br)c1
? | O=C(O)COc1ccc2nsnc2c1Cl
-2% | Cc1csc(NC(=O)CCC(=O)N(CC(=O)NC2CCCC2)Cc2ccco2)n1
20µM* | Clc1ccc(C2=NN=C3COc4ccccc4N3C2)cc1
? | O=C(CCCc1c[nH]c2ccccc12)N1CCN(c2ccc(N3CCOCC3)nn2)CC1
-12% | CCOC(=O)c1c(=O)n(O)c2ccc(C)cc2[n+]1[O-]
-13% | O=C(Oc1ccc2c(c1)CN(Cc1ccccc1)CO2)c1ccccc1
-5% | Cc1ccc(S(=O)(=O)N2CCCC2C(=O)Nc2nccs2)cc1 (stereo unspecified)
-14% | O=C(c1cccc(C(=O)N2CCc3ccccc32)n1)N1CCc2ccccc21
-15% | CCNC(=O)NC(=O)C(C)OC(=O)C1CCN(S(=O)(=O)c2ccc(C)c(C)c2)CC1 (stereo unspecified)
-26% | COc1ccc(C(=O)Nc2ccccc2-c2nnn(CC(=O)NCc3ccco3)n2)cc1
-18% | CC(=O)Nc1cc(C(=O)N2CCc3ccccc3C2)ccc1Sc1ccc(C)cc1
0% | O=C1C(c2ccccc2)C(c2ccccc2)NC(c2ccccc2)C1c1ccccc1 (stereo unspecified)
-10% | CCOC(=O)C/C(C)=N/NC(=O)CN(c1ccc(Br)cc1)S(=O)(=O)c1ccccc1
-8% | COc1ccc(/C=N/NC(=O)C[n+]2ccccc2)c(OC)c1OC
-25% | COc1ccc(-c2ccc(SCC(=O)NCc3ccco3)nn2)cc1OC
-4% | NS(=O)(=O)c1ccc(CCNC(=O)C2CCN(S(=O)(=O)c3cnc[nH]3)CC2)cc1
-9% | CC(=O)Nc1cccc(NC(=O)c2oc3ccccc3c2C)c1
-12% | Cc1nn(C)c(C)c1C1C(C#N)=C(N)Oc2n[nH]c(C)c21 (stereo unspecified)

Copied from the list:
CC(=O)Nc1cccc(NC(=O)c2oc3ccccc3c2C)c1 @ HPGD block = -9%
Cc1ccc(S(=O)(=O)N2CCCC2C(=O)Nc2nccs2)cc1 (stereo unspecified) @ HPGD block = -5%

New compounds follow.
HPGD block | Molecule
1% | COc1ccccc1N1C(=O)CC(Sc2nc(C)cc(C)n2)C1=O (stereo unspecified)
-8% | COc1cc(NC(=O)C(C)C)ccc1NC(=O)c1ccco1
-6% | CCN1CCN(Cc2ccc(NC(=O)Nc3ccccc3Cl)cc2)CC1
16µM* | Cc1[nH]c(=S)sc1Cc1ccc(Cl)c(Cl)c1
-8% | O=S(=O)(NCC1OCCc2ccccc21)c1ccc(S(=O)(=O)N2CCOCC2)cc1 (stereo unspecified)
-5% | Cc1cc(C)nc(NS(=O)(=O)c2ccc(NC(=O)CSc3nc4ccccc4[nH]3)cc2)n1
i | CCn1c(C(=O)Nc2ccsc2C(=O)OC)cc2sc(Cl)cc21
-10% | O=C(O)C1CCCCC1C(=O)Nc1ccc(Cl)cc1 (stereo unspecified)
14µM* | S=c1[nH]nc(COc2ccccc2)n1/N=C/c1cccs1
-19% | Cc1ccc2c(c1)cc(CN(Cc1ccco1)S(=O)(=O)c1ccccc1)c1nnnn12
0% | O=C(NCc1ccccc1)C(c1cccs1)N(C(=O)c1csnn1)C1CC1 (stereo unspecified)
-13% | Cc1nc(C)c(-c2csc(NCc3ccco3)n2)s1
-13% | CCc1cccc(NC(=O)c2ccc(Cn3nc(C)cc3C)o2)c1
-12% | COc1ccc(-c2nn(-c3ccccc3)cc2C(=O)NCCCn2ccnc2)cc1
-14% | O=C(COc1ccc2ccccc2c1)N1c2ccccc2Sc2ccccc21
28µM* | S=c1[nH]c2cc(Cl)ccc2s1
-7% | CC(=C/c1ccccc1)/C=N/NC(=O)c1cc(C)oc1C
-7% | CC(C)(NO)/C(=N/O)c1cccs1
-7% | CCOC(=O)c1c(C)c(C(=O)NC2CCCCCC2)c(C)n1C
-7% | CCN(CC)CCOC(=O)C1c2ccccc2Oc2ccccc21
3% | CCN(CC)S(=O)(=O)c1cc(NC(=O)Cn2cnc3ccccc3c2=O)ccc1C
-4% | CCCC(=O)NC(NC(=S)Nc1ccc(S(N)(=O)=O)cc1)C(Cl)(Cl)Cl (stereo unspecified)
-25% | N#Cc1nc(COc2ccccc2Cl)oc1N1CCCCCC1
25µM* | CC1NC(=O)NC1CCCCCC(=O)NCCc1ccccc1 (stereo unspecified)
-5% | CCOC(=O)CCP(=O)(O)C(O)(c1ccccc1)c1ccccc1
-5% | O=C(Nc1ccccc1N1CCN(c2ccc(F)cc2)CC1)C1CCCCC1
20µM* | c1ccc(CSc2nnc(-c3cccs3)o2)cc1
? | COC(=O)c1cn(NC(=O)C2CCCCC2)c(=O)c2ccccc12
-4% | COc1ccc(CC(=O)Nc2ccc(OC)c(NC(=O)c3ccco3)c2)cc1
28µM* | CCN(CC)c1ccc(C(=O)OCC(=O)Nc2cccc(S(=O)(=O)NC3=NCCCCC3)c2)cc1

The listing continues.
HPGD block | Molecule
? | O=C1C(Cl)=C(Sc2nnc3c4ccccc4c4ccccc4c3n2)C(=O)c2ccccc21
-14% | COCCCNC(=O)c1c(F)c(F)c(F)c(F)c1F
-10% | CN1C(c2ccc(F)cc2)=CS/C1=C(\C#N)c1nnc2n1-c1ccccc1SC2
-8% | CCOc1ccc(N=Cc2c(O)n(-c3cccc(C)n3)c(=O)c3ccccc23)cc1
1.3µM* | O=C(O)C1CCN(c2ncnc3ccc(-c4ccccc4C(F)(F)F)cc23)CC1
6% | CCCC(=O)N1CCCC(c2nc(-c3cccs3)no2)C1 (stereo unspecified)
-7% | CCOc1ccc(N2C(=O)CC(N3CCN(C(=O)CN4CCCC4)CC3)C2=O)cc1 (stereo unspecified)

The list is partial; the hit share may differ from the screen's.
